KCNQ2 inh – KCNQ2 potassium channel inhibitors, primary screen, cell-based, CHO-K1, FluxOR thallium flux, B-score (AID 2156); O88943; 310,000 compounds, 1.1% hits; 20 min; hits give low values; only compounds with negative scores are shown here; some inactives read as strong as hits; B-score at 10 µM;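 active = fluorescence ratio B-score at most minus 3 library SDs, with starting brightness B-score within 2 library SDs, cut at about -5.5 in these data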
Target sequence (O88943 whole entry, looked up): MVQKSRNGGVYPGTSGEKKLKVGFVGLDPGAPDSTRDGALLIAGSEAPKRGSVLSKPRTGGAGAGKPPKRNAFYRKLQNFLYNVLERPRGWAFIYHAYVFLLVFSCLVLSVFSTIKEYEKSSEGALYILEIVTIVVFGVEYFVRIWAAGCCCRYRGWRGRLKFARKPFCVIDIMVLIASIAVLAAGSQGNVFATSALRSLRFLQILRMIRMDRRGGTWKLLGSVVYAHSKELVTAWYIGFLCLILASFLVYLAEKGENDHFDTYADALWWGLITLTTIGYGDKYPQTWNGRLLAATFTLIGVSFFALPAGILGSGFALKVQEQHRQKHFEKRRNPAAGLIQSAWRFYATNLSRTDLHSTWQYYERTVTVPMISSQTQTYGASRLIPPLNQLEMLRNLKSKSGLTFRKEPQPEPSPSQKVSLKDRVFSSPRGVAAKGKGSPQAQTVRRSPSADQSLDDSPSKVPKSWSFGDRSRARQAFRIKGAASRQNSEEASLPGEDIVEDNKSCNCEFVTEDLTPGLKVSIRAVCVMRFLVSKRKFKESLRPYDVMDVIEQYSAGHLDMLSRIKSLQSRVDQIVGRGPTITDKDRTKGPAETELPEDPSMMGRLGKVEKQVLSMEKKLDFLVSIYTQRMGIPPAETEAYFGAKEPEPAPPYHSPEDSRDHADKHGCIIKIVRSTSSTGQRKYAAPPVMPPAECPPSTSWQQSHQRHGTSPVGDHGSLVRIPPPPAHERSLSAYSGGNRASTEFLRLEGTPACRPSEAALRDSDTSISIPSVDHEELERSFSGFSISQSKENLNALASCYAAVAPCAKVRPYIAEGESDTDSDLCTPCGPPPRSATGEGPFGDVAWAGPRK
KCNQ2 inh baseline – further read-out of KCNQ2 inh, marked with its call; B-score; measured here: initial fluorescence intensity artifact check;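 brightness before thallium and not channel activity; 0 = typical well and far values either way flag optical interference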
Active calls of the source: *; i = inactive.

Preview (3 entries):
Second line of a record – KCNQ2 inh | KCNQ2 inh baseline
Cc1ccc(S(=O)(=O)NCC(=O)N(CC(=O)NCc2ccccc2)CC2CCCO2)cc1 (configuration not stated)
  i | -1.06
COCc1nnc(NC(=O)CCc2ccc(OC)cc2)s1
  i | -0.26
COc1cc(/C=C/C(=O)O)ccc1OCc1cnc(Cl)s1
  i | 2.25

The list itself, previewed entries included:
Second line of a record – KCNQ2 inh | KCNQ2 inh baseline
Cc1ccc(S(=O)(=O)NCC(=O)N(CC(=O)NCc2ccccc2)CC2CCCO2)cc1 (configuration not stated)
  i | -1.06
COCc1nnc(NC(=O)CCc2ccc(OC)cc2)s1
  i | -0.26
COc1cc(/C=C/C(=O)O)ccc1OCc1cnc(Cl)s1
  i | 2.25
O=C(CNC(=O)c1ccncc1)N/N=C/c1ccccn1
  i | -1.16
CCCCCOc1ccccc1C(=O)NCCCC(=O)O
  i | 0.42
CN1C(=O)/C(=C/C=C2\SCCN2C)SC1=S
  i | 0.75
C/C(CC(=O)Nc1ccc(N(C)C)cc1)=N\NC(=O)c1ccc([N+](=O)[O-])cc1
  i | 0.36
Cc1ccc2c(c1)C1CC(C)(O2)N(c2cccc(C(=O)N3CCN(c4ccccn4)CC3)c2)C(=O)N1 (configuration not stated)
  i | 0.02
CCOC(=O)C(NC(=O)c1ccccc1)(OCc1ccc(F)cc1)C(F)(F)F (configuration not stated)
  i | -0.01
COc1ccc(N(CC(C)C)S(=O)(=O)c2nnc(NC(=O)c3ccco3)s2)cc1
  i | 0.04
CCCC1(c2ccccc2)NC(=O)N(CC(=O)Nc2cc(C)ccc2OC)C1=O (configuration not stated)
  i | -0.57
CC(C)C12CN3CC(C(C)C)(CN(C1)C3c1ccc3c(c1)OCO3)C2=O (configuration not stated)
  i | -2.16
N#Cc1nc(-c2ccccc2)oc1NCCCn1ccnc1
  i | 5.13
Cc1ccc(OCC(=O)NNC(=S)NC(=O)C2CC2)c(C)c1
  i | -0.04
CN(C)S(=O)(=O)c1ccc(N2CCCC2)c(C(=O)OCC(=O)NC2CCCCC2)c1
  i | -0.83
O=C(Nc1ccccc1N1CCN(c2ccccc2)CC1)c1cccc(F)c1
  i | -0.89
O=C(CSc1nc(C(F)(F)F)cc(=O)[nH]1)N1CCOCC1
  i | 1.64
CCC(C(=O)OCC(=O)Nc1ccccc1-c1ccccc1)c1ccccc1 (configuration not stated)
  i | -1.99
CCOc1ccc(S(=O)(=O)N(CC(=O)NCC(F)(F)F)Cc2ccco2)cc1
  i | 0.02
CCN1CCc2c(sc(NC(=O)CN3C(=O)c4ccccc4C3=O)c2C(N)=O)C1
  i | 0.4
Cc1ccc(/C=C/C(=O)c2c(C)nc3ccccn23)cc1
  i | -3.01
COc1ccc(-c2oc3ccccc3c2C(=O)Oc2ccccc2)cc1
  i | -0.29
COc1ccc(NC(=O)C2CCOC(C)(C)C2)cc1 (configuration not stated)
  i | -0.64
CCOc1ccc(S(=O)(=O)Nc2ccccc2C(=O)N2CCCC2)cc1
  i | -0.55
Cc1ccc(C)c(Nc2c([N+](=O)[O-])cc(C(=O)N3CC(=O)Nc4ccccc43)cc2[N+](=O)[O-])c1
  i | -0.22
COc1ccc(-c2c[n+](CC(=O)c3ccccc3)c3n2CCCCC3)cc1
  i | 2.16
CCOC(=O)Cc1c(C)nc2c(-c3cccc(Br)c3)cnn2c1C
  i | 0.23
Cc1cccc(C)c1-n1c(C)nn(Cc2ccc([N+](=O)[O-])cc2)c1=O
  i | -1.4
CCn1cc(C(=O)N2CCN(C(=O)c3ccco3)CC2)c2cc(OC)c(OC)cc2c1=O
  i | 1.48
COc1ccc(Cl)cc1NC(=O)CN(C)C(=O)Cn1c(=O)oc2ccccc21
  i | 1.25
CC(=O)c1cnc(-c2ccccc2Cl)s1
  i | 0.41
Cc1cc(C)c(-c2cc(NC(=O)COC(=O)c3ccc(CO)cc3)n(-c3ccccc3)n2)cc1C
  i | -0.08
Cn1c(=O)c2c(ncn2CC(O)CNc2ccc(Br)cc2)n(C)c1=O (configuration not stated)
  i | -2.78
Cc1cc(C)cc(NC(=S)/C(=C(\[O-])c2ccc(Cl)cc2Cl)[n+]2ccccc2)c1
  i | 0.61
CS(=O)(=O)N1CCN(CC2CC3C=CC2C3)CC1 (configuration not stated)
  i | 0.95
O=C(Nc1ccc(CN2CCOCC2)cc1)c1ccc(Br)cc1
  i | 0.57
Cc1cc(C)n2cc(CSC3=NCCS3)nc2n1
  i | 1.28
Cc1ccc(NC(=O)Cn2nnc(C(=O)NCCc3ccccc3)c2N)cc1Cl
  i | -0.41
C=CCc1ccccc1OCC(O)CN(C(C)C)C(C)C (configuration not stated)
  i | 0.75
CC1(C)Cc2c(C#N)c(NCCN3CCOCC3)nc(-c3ccco3)c2CO1
  i | 1.12
COc1ccccc1NC(=O)N1CCc2c([nH]c3ccccc23)C1C(F)(F)F (configuration not stated)
  i | -1.81
CCOCCn1c(N2CCN(c3ccccc3)CC2)nc2c1c(=O)n(C)c(=O)n2C
  i | -0.04
O=C(NC(=S)Nc1ccc(-c2nc3ncccc3o2)cc1)c1ccccc1F
  i | 0.27
Cn1cc(Br)c(C(=O)NNC(=O)c2ccccc2)n1
  i | 0.85
Cc1ccccc1NC(=O)C(=O)NCCc1ccccc1
  i | -0.55
Cc1cc2nc(C)n(CCCNC(=O)Nc3ccc(F)cc3)c2cc1C
  i | 2
O=C(NC1(Cc2ccc(O)cc2)CCCCC1)c1ccccc1
  i | 2.07
Cc1cc2c(cc(C(=O)OC(C(=O)NCC3CCCO3)C(C)C)n2C)o1 (configuration not stated)
  i | 0.28
O=[N+]([O-])c1ccc(Nc2c3ccccc3nc3ccccc23)cc1
  i | -2.59
COc1cccc2cc(C(=O)Nc3cccc(C)n3)c(=O)oc12
  i | 1.63

Next part:
Second line of a record – KCNQ2 inh | KCNQ2 inh baseline
COc1ccc(C(=O)Nc2c(Cl)cc(Cl)cc2C(=O)NCc2ccco2)cc1
  i | 1.86
COc1ccccc1OCCNC(=O)c1cc(F)c(F)cc1Cl
  i | -0.28
CCn1nc(NS(=O)(=O)c2cccc3nonc23)c2cc3ccc(C)cc3nc21
  i | -1.42
CSC(=NC#N)N1CCN(c2c(C)cccc2C)CC1
  i | 2.64
S=c1nc(-c2ccccc2)n(CCN2CCOCC2)c2c1CCCC2
  i | -0.81
Cc1cccc(NC(=O)C2CCN(S(=O)(=O)c3ccc4c(c3)OCCO4)CC2)n1
  i | 3.25
Cc1nn(C)cc1CN(C)S(=O)(=O)c1cccc([N+](=O)[O-])c1
  i | -0.71
O=C(c1cccc(C(F)(F)F)c1)C1CCCN(C(=O)c2cc(C3CC3)[nH]n2)C1 (configuration not stated)
  i | 0.51
O=S(=O)(c1cccc2cccnc12)N1CCN(Cc2ccccc2)CC1
  i | 4.02
O=C(c1ncc[nH]1)c1ccco1
  i | 0.31

Part of the list above in order of SMILES length, ascending:
Second line of a record – KCNQ2 inh | KCNQ2 inh baseline
O=C(c1ncc[nH]1)c1ccco1
  i | 0.31
CSC(=NC#N)N1CCN(c2c(C)cccc2C)CC1
  i | 2.64
O=S(=O)(c1cccc2cccnc12)N1CCN(Cc2ccccc2)CC1
  i | 4.02
Cc1nn(C)cc1CN(C)S(=O)(=O)c1cccc([N+](=O)[O-])c1
  i | -0.71
CCn1nc(NS(=O)(=O)c2cccc3nonc23)c2cc3ccc(C)cc3nc21
  i | -1.42

Next section.
Second line of a record – KCNQ2 inh | KCNQ2 inh baseline
CC(C)CNS(=O)(=O)c1ccc(CCC(=O)O)cc1
  i | -1.39
COc1cc(C(=O)O)ccc1O
  i | 0.71
O=C(CCCc1cccs1)Nc1nc2c(s1)CCCC2
  i | 0.21
O=C(CSc1nnc(CNC(=O)c2ccccc2)o1)NCC1CCCO1 (configuration not stated)
  i | -0.47
CCOc1ccc(CCNC(=O)C2CCCN(S(=O)(=O)c3c(C)n[nH]c3C)C2)cc1OCC (configuration not stated)
  i | 0.66
CCCOP(=O)(c1ccc(N(C)C)cc1)C(Nc1ccccc1)c1ccc(N(C)C)cc1 (configuration not stated)
  i | 2.18
CCCCC[C@H]1CN(C2CCCCC2)C(=O)[C@@H]1CC(=O)NCc1ccccc1
  i | -1.07
COc1ccc(N2CCN(Cc3nc4scc(-c5cccs5)c4c(=O)[nH]3)CC2)cc1
  i | -1.43
CCN(c1cccc(C)c1)S(=O)(=O)c1cc(CN2C(=O)c3cccnc3C2=O)ccc1OC
  i | -0.12
CC(C)(C)c1ccc(C(=O)N/N=C/c2cccc(Cl)c2)cc1
  i | -0.48
Cc1cccc(NC(=O)c2cccc(N3C(=O)C4C5C=CC(C6CC56)C4C3=O)c2)c1 (configuration not stated)
  i | 0.31
Cc1nc(SCC(=O)Nc2ccccc2C(F)(F)F)c(C#N)c(C)c1CC(=O)c1ccc(Br)cc1
  i | -0.05
Cc1ccc(-c2ccc(SCC(=O)NC3CCCCC3)nn2)cc1
  i | 0.76
CCOC(=O)C1(C(F)(F)F)N=C(c2ccccc2F)OC(N(C)C)=N1 (configuration not stated)
  i | -0.92
Cc1n[nH]c(C)c1N1C(=O)c2cccc3c(Br)ccc(c23)C1=O
  i | -0.61
CC(=O)N(c1nnc(-c2ccc(C)cc2)s1)C1CCCC1
  i | 0.29
C/C(=N\NC(=O)CSc1nc2ccccc2s1)c1ccco1
  i | -1.97
Cc1cc2nc3s/c(=C/c4ccc(-c5ccccc5C(=O)O)o4)c(=O)n3c2cc1C
  i | 17.1
Fc1cccc(Cl)c1CNC(c1ccccc1)c1ccccc1
  i | 2.6
CC(C)Cn1c(/C=N/Nc2nc3ccccc3[nH]2)nc2ccccc21
  i | 1.13

Structural class: the compounds so far with a thiophene ring, fused or not
Second line of a record – KCNQ2 inh | KCNQ2 inh baseline
CCN1CCc2c(sc(NC(=O)CN3C(=O)c4ccccc4C3=O)c2C(N)=O)C1
  i | 0.4
O=C(CCCc1cccs1)Nc1nc2c(s1)CCCC2
  i | 0.21
COc1ccc(N2CCN(Cc3nc4scc(-c5cccs5)c4c(=O)[nH]3)CC2)cc1
  i | -1.43

Other entries follow.
Second line of a record – KCNQ2 inh | KCNQ2 inh baseline
NC(CC(=O)OC1CCCCC1)C(=O)OC1CCCCC1 (configuration not stated)
  i | 0.71
O=C(COC(=O)/C=C/c1cccc(C(F)(F)F)c1)NC(c1ccccc1)c1ccccc1
  i | -0.23
CC1=CCC(/C=N\Nc2nnc3c(n2)[nH]c2ccccc23)CC1 (configuration not stated)
  i | 0.17
O=C(NNC(=O)c1ccccc1Br)c1cccs1
  i | -0.18
Cc1ccccc1C(=O)OCCN1CCOCC1
  i | 0.7
COc1ccc(Cc2nnc(NN)[nH]c2=O)cc1OC
  i | 0.79
CN(Cc1ccccc1)C1=CC(=[N+]2CCCCC2)CC(C)(C)C1
  i | 2.18
COc1ccc(CNC(=O)CCN2C(=O)c3ccccc3C2=O)cc1
  i | 0.58
O=S(=O)(Nc1ccc(S(=O)(=O)N2CCCCC2)cc1)c1ccc(Br)s1
  i | -0.2
O=S(=O)(NCC1CCCO1)c1ccc(S(=O)(=O)N2CCCC2)cc1 (configuration not stated)
  i | 2.25
COC(=O)CN1C(=O)C2(C(C#N)=C(N)Oc3n[nH]c(-c4cccs4)c32)c2ccccc21 (configuration not stated)
  i | 0.8
CC1(NC(=S)Nc2ccccc2)CCS(=O)(=O)C1 (configuration not stated)
  i | 0.08
Cc1cccc(C2NC(=O)c3ccccc3O2)c1 (configuration not stated)
  i | -1.6
O=S(=O)(NC1CCCCC1)c1cccc(-c2nnc(-c3ccccc3)o2)c1
  i | -0.45
Cc1cc(N2CCN(Cc3ccccc3)CC2)n2nc(C)c(-c3ccccc3)c2n1
  i | 0.35
O=C(CCN1C(=O)/C(=C/c2cccs2)SC1=S)N1CCCCC1
  i | 0.26
COc1cc(C(=O)NCCOc2cccc(C)c2)c(Br)c(OC)c1OC
  i | 1.16
CN(Cc1ccccc1O)CC1CCCN(CCc2ccc(Cl)cc2)C1 (configuration not stated)
  -8.98* | 0.11*
O=C(NC1CSC/C1=N\O)c1ccccc1 (configuration not stated)
  i | -0.87
COc1ccc(OC)c(/C=N/n2c(COc3ccccc3)n[nH]c2=S)c1
  i | -1.45
CN(CCO)Cc1csc2ccc(Br)cc12
  i | -0.25
COc1ccc(C(=O)O)c(OC)n1
  i | 0.14
O=C(O)Cc1ccc(NS(=O)(=O)c2ccc3ccccc3c2)cc1
  i | 0.1
Cc1ccc(NC(=O)CCC(=O)NNS(=O)(=O)c2ccccc2)cc1C
  i | 1.71
CC1CCCC(NC(=O)C2N(CCCN3CCCC3)C(=O)C3C(C(=O)Nc4cccc(Cl)c4)C4C=CC32O4)C1C (configuration not stated)
  i | -0.81
Cc1ccc(-c2ccc(CCC(=O)O)n2NC(N)=S)cc1
  i | 0.04
CC(CC(=O)Nc1cccc(Cl)c1)c1ccccc1 (configuration not stated)
  i | -0.27
COc1ccccc1-n1cnc2c(c1=O)c1nc3ccccc3nc1n2-c1ccc(C)cc1
  i | 0.53
COc1ccc(C(c2nnnn2Cc2ccccc2)N2CCN(c3nc4ccccc4s3)CC2)cc1OC (configuration not stated)
  i | 0.02
Cc1c(Cl)cccc1-c1ccc(C(=O)N2CCN(c3ccc([N+](=O)[O-])cc3)CC2)o1
  i | 0.06
CC(=O)OC(C(=O)NC1CCCCC1)c1ccc(C)cc1 (configuration not stated)
  i | -0.17
O=C(c1cc(-c2ccc3c(c2)OCO3)on1)N1CCOCC1
  i | -1.13
C=CCn1c(C)cc(C(=O)COC(=O)C2CC(=O)N(CCc3ccc(OC)c(OC)c3)C2)c1C (configuration not stated)
  i | 2.2
Cc1cc(C(=O)OCC(=O)NCCc2ccccc2)c(C)o1
  i | -0.58

Assay outcomes as filed in PubChem BioAssay.

Some of the compounds tested, so the mix of outcomes need not match the whole.
